Screening results as filed in PubChem BioAssay.
Vaccinia Venus = inhibitors of vaccinia virus (Venus reporter); Vaccinia virus Venus reporter expression, fluorescence; Potency, µM (series often up to 36.5 µM), for inactives: at the highest dose activity change, negative = inhibition, usual class: inhibitors; 330,000 compounds, 0.46% hits; AID 720580; active means well fitted inhibition curve with a large enough effect; inconclusive means small, poorly fitted or top-dose-only effect; inactive means no such curve, though single readings can be large or run the other way; tested in A549 cells; also: nearly all actives have a fitted effect of over 30% in size; inactives centre near -10
VACV mCherry inh = inhibitors of vaccinia virus infection (mCherry reporter signal). Vaccinia virus mCherry reporter infection, fluorescence; about a quarter of the inactives have no number. Potency, µM (doses to about 36.5 µM), for inactives: top-dose activity change, negative = inhibition, actives largely listed as inhibitors. 310,000 compounds, 0.63% hits; active = well fitted inhibition curve with a large enough effect; inconclusive = small, poorly fitted or top-dose-only effect; inactive = no such curve, though single readings can be large or run the other way; tested in A549 cells; also: nearly all actives have a fitted effect of over 35% in size; inactives centre near -10
Starred values were filed as active, the others as inactive; i = inactive; ? = inconclusive; . = no result given; + = active, no number; & = joins results of further samples; [ ] = remark or other dose. % is scaled to controls: 0 for no effect and ±100 for the full control effect; potency is read from the fitted curve at half-maximal effect.

SMILES	Vaccinia Venus	VACV mCherry inh
Cc1ccc(S(=O)(=O)c2nc(-c3cccs3)oc2SC(C)c2ccccc2)cc1 (centres undefined)	-7.6%	-10.0%
Cc1c(NC(=O)CN(C)CC(=O)Nc2ccc(F)c(F)c2F)c(=O)n(-c2ccccc2)n1C	-5.3%	i
Cc1cccc(C(=O)NCC(=O)OCC(=O)NCCNC(=O)COC(=O)CNC(=O)c2cccc(C)c2)c1	-14.6%	-12.6%
COc1ccccc1NC(=O)C1=C(C)Nc2ncnn2C1c1ccccc1C(=O)O (centres undefined)	-2.8%	-8.7%
CC1CCCN(c2ccc(C(=O)NCc3ccco3)cc2[N+](=O)[O-])C1 (centres undefined)	-16.7%	-29.8%
CCOC(=O)c1c(NC(=O)CN2CCCCC2)sc2c1CCC(C=O)=C2Cl	-3.5%	-19.3%
OC(CN1CCCCC1)c1ccccc1 (centres undefined)	-3.3%	-10.6%
CCC1CCCCN1C(=S)Nc1ccc(S(=O)(=O)Nc2ncccn2)cc1 (centres undefined)	-11.2%	i
Cc1ccc(-c2nc3sc(CCNC(=O)c4ccc(C)c(C)c4)c(C)n3n2)cc1	-7.4%	-11.2%
CN(C)S(=O)(=O)c1ccc(C(=O)Nc2ccccn2)cc1	-9.8%	i
O=C(NCC1CCCO1)C(=O)NCC(c1ccco1)N1CCN(c2ccccc2F)CC1 (centres undefined)	-8.3%	-15.0%
Cc1ccc(-n2c(/C=C/c3c(C)n(C)c4ccccc34)nc3ccccc3c2=O)cc1	3.1%	-5.6%
Cc1cc(C)c(CNC(=O)c2cc(C3CC3)nc3c2cnn3C(C)C)c(=O)[nH]1	-15.7%	-6.0%
O=C(Nc1nccs1)c1cncc(Br)c1	-3.1%	-13.3%
O=C(NCCc1ccccc1)C(=O)NCC1OCCN1S(=O)(=O)c1ccc(Cl)cc1 (centres undefined)	-11.8%	-23.7%
Cc1ccc(-c2ccc(CN3C(C(C)C)C(=O)N(Cc4cn(CCC5OCCCO5)nn4)CCS3(=O)=O)cc2)cc1 (centres undefined)	?	i
Cc1ccc(C)c(NC(=O)CN(C)C(=O)c2ccc3ncsc3c2)c1	-11.2%	-14.2%
CCCCn1c(N)c(N(CC(C)C)C(=O)c2ccc(Br)o2)c(=O)[nH]c1=O	-6.4%	i
CCCCN(CC)C(=O)Cn1cnc2sc(C)c(S(=O)(=O)N3CCC(C)CC3)c2c1=O	-3.3%	-26.6%
COc1ccc(CCN=C(N)NS(=O)(=O)c2ccc(OC)cc2)cc1	-14.7%	-16.6%
COc1ccc(-c2csc3nc(C(C)C)oc(=O)c23)cc1OC	0.7%	-1.2%
Cc1nnc(NCc2ccc(F)cc2)c2c1nnn2Cc1ccccc1Cl	-6.6%	-13.6%
c1ccc(COC2CCCN(Cc3nc(-c4cnccn4)no3)C2)cc1 (centres undefined)	-6.3%	i
O=C(O)C1CC(=O)N(c2ccc(F)c(F)c2)C1 (centres undefined)	?	.
COC(=O)c1ccccc1NC(=O)CSc1nc2sc3c(c2c(=O)[nH]1)CCCC3	-7.3%[7.34 µM]	4.4%[7.34 µM]
COc1ccc(C(C)(O)c2nc(-c3cnc4ccccc4c3)cs2)cc1 (centres undefined)	-4.5%	8.0%
O=C(O)CSc1nnnn1C1CCCCC1	-7.7%	i
COc1cc(NC(=O)c2[nH]c(C)c(C(C)=O)c2C)cc(OC)c1OC	-7.1%	-8.6%
O=C(NC(=S)Nc1cccc2c(O)cccc12)c1ccccc1[N+](=O)[O-]	-19.7%	?
Cc1ccc(S(=O)(=O)C(CNS(=O)(=O)c2cc(F)ccc2F)c2cccs2)cc1 (centres undefined)	-9.5%	-10.5%
Cc1nn(-c2ccccc2)c2nc(N)c(C(N)=O)cc12	-13.4%	-14.0%
Cc1cc(=O)n2[nH]c(SCc3ccccc3Cl)nc2n1	-18.5%	-7.7%
CC(=O)NC1=NN(C(C)=O)C(C)(c2ccc3ccccc3c2)S1 (centres undefined)	-17.3%	-23.3%
CCc1nn(CC(=O)NC(C)c2ccccc2)c(=O)c2cc3sccc3n12 (centres undefined)	6.1%	-8.8%
Cn1cccc1C(=O)N/N=C/c1c(Cl)cccc1Cl	-10.5%	-15.1%
CCCc1cc2c(=O)c(-c3cscn3)c(C(=O)OCC)oc2cc1O	-8.0%	-26.0%
COc1ccc(-c2nsc(NC(=O)c3ccccc3Br)n2)cc1	-4.7%	10.9%
CCOc1ccc(N/C=C/C(=O)c2ccc(C)cc2)c([N+](=O)[O-])c1	-15.0%	.
COC(=O)CSc1nc(C)c2c(n1)CCCC2	-15.5%	-10.7%
CCN(CC)S(=O)(=O)c1ccc(OC)c(NC(=O)c2cc3c(=O)n4ccccc4nc3s2)c1	0.8%	-9.7%
CC(C)C[C@@H]1CN(CCCC[C@H]2CNC(=O)C(=O)N2CCC2CCCCC2)C(=O)C(=O)N1CCc1ccc(O)cc1	-2.3%	-7.4%
N=C(N1CCCc2ccccc21)N1CCCc2ccccc21	1.6%	?
CC(=O)OCC(=O)c1c[nH]c2ccccc12	12.0%	i
Cn1c(SCC(=O)N2CCCc3ccccc32)ncc(C(=O)Nc2ccccc2)c1=O	-1.6%	-19.4%
CC(C)CC(=O)Nc1cc(C(F)(F)F)ccc1N1CCOCC1	-22.3%	-24.2%
CN1CCCC1CCNC1C2CC3CC(C2)CC1C3 (centres undefined)	-13.3%	-21.3%
O=C(NC[C@@H]1CCCO1)c1cccc2c1C(=O)c1ccc(Cl)cc1S2(=O)=O	-4.2%	i
Brc1nc(Br)n(Cc2ccccc2)n1	-13.6%	i
CC(C)CCC(C(=O)O)C(C)CC(=O)NNC(=O)c1ccco1 (centres undefined)	4.3%&-12.5%	i
CCNS(=O)(=O)c1ccc(CCC(=O)NCc2ccc3c(c2)OCO3)cc1	-17.7%	-5.8%
CCCOC1CCCN(C(=O)c2cc(COc3ccc(F)c(F)c3)on2)C1 (centres undefined)	-12.9%	-3.9%
O=C(Nc1ccccc1)C1CCCCN1S(=O)(=O)c1ccccc1 (centres undefined)	-16.4%	-7.1%
Cc1ccc(S(=O)(=O)NC(=O)COc2ccccc2C)c(C)c1	-14.3%	-18.8%
Cc1ccnc(NC(=O)c2ccc(C(=O)c3ccccc3)cc2)c1	-13.3%	-6.5%
O=C(OCCOc1cccc(Cl)c1)C1CCN(S(=O)(=O)c2ccccc2)CC1	-7.6%	i
CC(C)CNC(=S)NNC(=O)c1csc2c1CCCC2	-21.8%	-24.6%
CC(C)(C)NC(=O)NC(=O)CN1C(=O)NC(c2ccccc2)(c2ccccc2)C1=O	-0.5%	-3.0%
COc1ccc(C(=O)CN2C(=O)N(c3cc(C)cc(C)c3)S(=O)(=O)c3ccccc32)cc1	-11.5%	-14.7%
Cc1ccc(C)c(Nc2cc(C(=O)NC3CCCC3)c3ccccc3n2)c1	-15.8%	-9.1%
O=C(NCc1cccnc1)NC1(C(F)(F)F)Oc2ccc(Cl)cc2O1 (centres undefined)	?	?
Other entries follow.
SMILES	Vaccinia Venus	VACV mCherry inh
Cc1ccc(OCC(=O)OC2=C(C(=O)c3ccccc3)N(C)S(=O)(=O)c3ccccc32)cc1	-6.7%	-24.0%
Cc1nnc(N2CCN(c3cccc(Cl)c3)CC2)c2c1nnn2Cc1ccc(F)cc1	-11.2%	-8.0%
CCCCCc1cc(=O)oc2c(C(CCN(CC)CC)c3ccc(N(C)C)cc3)c(OC)cc(OC)c12 (centres undefined)	?	-29.1%
CCOC(=O)c1cc2cc([N+](=O)[O-])ccc2oc1=O	-7.3%	-10.3%
CCN1C(=O)CS/C1=N\S(=O)(=O)c1ccccc1	1.2%	-13.8%
CCOC(=O)C1(C(=O)OCC)COC(=O)C2(CC)OC21 (centres undefined)	2.4%	-16.3%
Cc1oc2ccc(O)c(CN3CCCCCC3)c2c1C(=O)Nc1cccc(C(F)(F)F)c1	?	-2.6%
CCN1C(=O)[C@H]2[C@@H](c3ccc(SC4CCCCC4)c(OC)c3)N[C@@](Cc3ccccc3)(C(=O)OC)[C@H]2C1=O	?	-3.6%
O=C(NNc1ncc(C(F)(F)F)cc1Cl)c1ccc(Cl)c(Cl)c1	-10.1%	i
CCCCn1c(-c2ccccc2C)nc2cc3[nH]c(=O)c(C(C)C)nc3cc21	?	?
CC(C)(C)NC(=O)NC(=O)COC(=O)CCC1CCCC1	-3.4%	-24.9%
COc1cccc(-n2ccnc2SCC(=O)NCc2ccccc2)c1	?	.
COCCNC(=O)C1CCCN(S(=O)(=O)c2ccc3c(c2)CC(C)N3C(=O)C2CC2)C1 (centres undefined)	-6.0%	-8.6%
Cc1ccc(-c2nnn(CC(=O)N3CCCCC3)n2)o1	-9.0%	-20.8%
CN(C)/C=N/NC(=O)c1ccc(Cl)cc1	-4.7%	-0.1%
O=S(=O)(Cc1cc(NCc2ccccc2)nc(-c2ccccn2)n1)c1ccccc1	?	-24.0%
COc1ccc(NC(=O)C(Cc2ccccc2)NS(=O)(=O)c2ccc3c(c2)CCC(=O)N3)c(OC)c1 (centres undefined)	5.3%	-5.8%
O=C(CCS(=O)(=O)Cc1ccccc1)NCC1CCCO1 (centres undefined)	-3.0%	-16.1%
CN(C)S(=O)(=O)n1cnc([C@@H]2[C@H]3C(=O)OC[C@@H]3C[C@@]23N=CN(Cc2ccccc2)C3=O)c1	2.3%	i
COc1ccc(NC(=O)CSc2nc(-c3ccco3)cc(C(F)(F)F)n2)cc1	-21.8%	-26.0%
Cc1cc(NC(=O)CSc2nc(C)c(C)c(=O)[nH]2)no1	-11.0%	-5.1%
COCC(=O)Oc1c(Sc2ccc(C)cc2)c(C)nn1C(C)(C)C	-14.7%	-18.6%
O=C(Nc1ccc(Br)cc1F)N1CCC(CN2CCc3ccccc3C2)CC1	-15.6%	i
CC/C(=N\NS(C)(=O)=O)c1ccccc1	-2.1%	-11.9%

A different layout for part of the listing above:
| Compound | Vaccinia Venus | VACV mCherry inh |
| --- | --- | --- |
| CC(C)CNC(=S)NNC(=O)c1csc2c1CCCC2 | -21.8% | -24.6% |
| CC(C)(C)NC(=O)NC(=O)CN1C(=O)NC(c2ccccc2)(c2ccccc2)C1=O | -0.5% | -3.0% |
| COc1ccc(C(=O)CN2C(=O)N(c3cc(C)cc(C)c3)S(=O)(=O)c3ccccc32)cc1 | -11.5% | -14.7% |
| Cc1ccc(C)c(Nc2cc(C(=O)NC3CCCC3)c3ccccc3n2)c1 | -15.8% | -9.1% |
| O=C(NCc1cccnc1)NC1(C(F)(F)F)Oc2ccc(Cl)cc2O1 (centres undefined) | ? | ? |

Full records, looked up by structure. Screens in order: Vaccinia Venus | VACV mCherry inh
COCC(=O)Oc1c(Sc2ccc(C)cc2)c(C)nn1C(C)(C)C as listed: -14.7% | -18.6%
CN(C)S(=O)(=O)n1cnc([C@@H]2[C@H]3C(=O)OC[C@@H]3C[C@@]23N=CN(Cc2ccccc2)C3=O)c1 as listed: 2.3% | i
O=S(=O)(Cc1cc(NCc2ccccc2)nc(-c2ccccn2)n1)c1ccccc1 as listed: ? | -24.0%
O=C(Nc1ccc(Br)cc1F)N1CCC(CN2CCc3ccccc3C2)CC1 as listed: -15.6% | i

Continuation.
SMILES	Vaccinia Venus	VACV mCherry inh
O=C(OCC(=O)N1CCN(C(=O)c2ccco2)CC1)c1cc(-c2ccccc2)nc2ccccc12	-15.1%	.
O=C1NC(Cc2ccccc2)c2nc3ccccc3c(=O)n2-c2ncccc21 (centres undefined)	-12.2%	i
CCc1cccc(NC(=O)C2CCCN(S(=O)(=O)c3cccs3)C2)c1 (centres undefined)	-12.9%&-4.6%	?
COc1ccc(NC(=S)Nc2ccccc2)cn1	-6.3%	i
Cc1cnc(C(=O)OCC(=O)Nc2ccc(OCc3ccccc3)cc2)cn1	-10.2%	-3.6%
COc1cccc(Cn2cccc(NC(=O)NCc3ccccc3)c2=O)c1	-4.6%	-10.0%
CC(C)N(Cc1ccccc1)C(=O)Cn1ncc2c([nH]c3ccccc32)c1=O	-3.7%	3.1%
O=C(C1=C(O)C(=O)N(c2nccs2)C1c1ccccc1)c1cc2ccccc2o1 (centres undefined)	34.0%[activator]	-15.2%
Cc1nn(C)c(C)c1S(=O)(=O)N(CC(=O)NC1CCCCCC1)c1ccc(C(C)C)cc1	-7.2%	-4.7%
CCc1nnc(NC(=O)CCN2C(=O)/C(=C/c3cc(OC)c(OC)c(OC)c3)SC2=S)s1	-2.0%	-10.0%
COc1ccc2c(c1)CCC1=C2NC(=S)NC1c1ccc(N(C)C)cc1 (centres undefined)	-27.9%	?
Cc1nc(NS(=O)(=O)c2ccccc2)sc1NC(=O)OC(C)C	-5.4%	i
O=C(NCc1ccccn1)c1cccc(S(=O)(=O)N2CCc3ccccc32)c1	-12.0%	-5.7%
CCS(=O)(=O)N1CC(=O)N(c2ccc(C)c(C)c2)C(C)(C(=O)NC2CCCCC2)C1 (centres undefined)	-13.7%	-17.0%
Cc1ccccc1-c1nc(CS(=O)CC(=O)NC(C)CCc2ccccc2)c(C)o1 (centres undefined)	0.0%[7.34 µM]	41.8%[activator][7.34 µM]
COc1ccc([C@@]23Oc4cc(OC)cc(OC)c4[C@]2(O)[C@H](O)[C@H](C(=O)N(C)C)[C@H]3c2ccccc2)cc1	0.0001µM*	+
Cc1ccc(NC(=O)c2cc(S(=O)(=O)NCCC3=CCCCC3)ccc2F)cc1	?	-27.4%
COC(C)(C)[C@@H](O)COc1c2ccoc2cc2oc(=O)ccc12	8.5%	12.3%
CCN1CCN(C(=O)C2CCN(S(=O)(=O)c3cc(Cl)ccc3Cl)CC2)CC1	-4.2%	1.3%
